Polio RdRp inh = poliovirus RNA polymerase inhibition; % elongation, % (compound at 16.7 µg/mL); P03300; hit rate 0.66% among 150,000; poliovirus polymerase elongation, fluorescence polarization; hits give low values; in the data active = % elongation below about 90%; also: some results filed as inactive read as strong as hits
MenB inh = Mtb MenB enzyme inhibition; P9WNP5; MenB enzyme assay, absorbance read-out; some hits fall short of the stated cut; inhibition, %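 (about 12 µg/mL by stock and volumes)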; hit rate 0.43% among 100,000; AID 540299;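 active = mean of two replicates above 30%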;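 also: 0% = no compound and 100% = wells with inactive enzyme; the first replicate is given; strong numbers were not always called active; inactives centre near -10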
Target sequence (P9WNP5 whole entry, looked up): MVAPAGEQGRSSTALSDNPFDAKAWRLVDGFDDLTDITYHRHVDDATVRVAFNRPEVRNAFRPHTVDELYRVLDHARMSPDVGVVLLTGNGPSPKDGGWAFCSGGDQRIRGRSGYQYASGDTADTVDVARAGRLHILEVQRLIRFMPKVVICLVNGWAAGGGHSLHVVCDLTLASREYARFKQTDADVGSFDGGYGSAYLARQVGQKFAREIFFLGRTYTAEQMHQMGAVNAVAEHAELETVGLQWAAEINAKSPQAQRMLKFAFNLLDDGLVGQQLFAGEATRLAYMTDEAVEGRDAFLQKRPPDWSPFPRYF
Mtb MbtI inh = inhibitors of Mycobacterium tuberculosis siderophore enzyme MbtI; purified MbtI enzyme, fluorescence intensity read-out; P9WFX0; hit rate 0.89% among 100,000; inhibition, %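 (about 17 µg/mL by stock and volumes)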; AID 493033;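 active = above 50% in both replicates, above 80% if mildly self-fluorescent; inactive = the rest, strongly fluorescent compounds included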;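 also: 0% = mean of negative and 100% = mean of positive controls; one replicate is shown; some compounds called inactive have numbers as strong as hits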
Target sequence (P9WFX0 whole entry, looked up): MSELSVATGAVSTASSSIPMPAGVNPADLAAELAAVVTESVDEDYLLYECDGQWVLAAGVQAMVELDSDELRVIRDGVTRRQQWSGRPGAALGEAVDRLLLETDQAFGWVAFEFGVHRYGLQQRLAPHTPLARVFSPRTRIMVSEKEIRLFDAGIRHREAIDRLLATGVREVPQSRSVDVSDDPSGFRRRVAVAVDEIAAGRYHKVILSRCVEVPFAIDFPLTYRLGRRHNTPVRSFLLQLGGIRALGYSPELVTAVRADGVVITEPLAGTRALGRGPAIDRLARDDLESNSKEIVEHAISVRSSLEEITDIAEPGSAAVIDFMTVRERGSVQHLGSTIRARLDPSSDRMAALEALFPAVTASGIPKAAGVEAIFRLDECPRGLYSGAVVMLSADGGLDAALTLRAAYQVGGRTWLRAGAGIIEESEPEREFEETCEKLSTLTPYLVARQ
Polio RdRp inh intensity = further read-out of Polio RdRp inh, marked with its call; % elongation; measured here: total intensity read-out; formula for this scale not given here;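 total fluorescence in place of polarization; lower means less elongation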
* = called active by the depositor; . = not tested or not shown; & = joins results of further samples.

Order of results: Polio RdRp inh	Polio RdRp inh intensity	MenB inh	Mtb MbtI inh
CC(C)(C)c1cc(C(F)(F)F)n2ncnc2n1
    101	103	-15	22
CC(C)C1C(=O)CC(c2ccccc2)NC1c1ccccc1 (configuration not stated)
    104	95	7	14
CCOC(=O)/C(C#N)=C/c1ccc2c(c1)Sc1ccccc1N2C
    44	236	-30	19
COC(=O)c1c(C)nn(-c2ccccc2)c1-n1c(C)ccc1C
    102	106	-8	-10
CCN(CC)C(=S)SCc1ccc(C(=O)O)cc1
    100	105	-16	-10
O=S1(=O)N=C(Oc2ccccc2Cl)c2ccccc21
    99	102	-8	-1
CCc1nnc(SCc2cc(=O)n3ccccc3n2)c2cc3occc3n12
    102	99	9	4
c1cncc(-c2cccnc2)c1
    105	112	23	-14
O=c1[nH]c(Nc2ccccc2)cc2ccccc12
    76*	94*	-17	65
Cc1ccsc1C1C(C#N)=C(N)Oc2nc(-c3ccccc3)[nH]c21 (configuration not stated)
    99	98	-28	-8
Cn1cc(NC(=O)NCc2ccccn2)c2ccccc2c1=O
    99	98	-18	-17
CSc1nc2c(cnn2-c2ccccc2)c(=O)n1N
    105	108	-9	.
CC(OC(=O)c1ccc(OC(F)F)cc1)C(=O)NC1CC1 (configuration not stated)
    99	100	-10	-38
CN(C)C(=O)COc1ncnc2ccccc12
    102	109	.	-1
O=C(CSc1nc(=O)n(Cc2ccccn2)c2c1CCC2)N1CCCCC1
    107	104	-18	15
CSc1ccccc1NC(=O)COC(=O)/C=C/c1ccc(F)cc1
    99	109	.	-6
CNC(=O)c1ccsc1NC(=O)c1ccc(OC)c(OC)c1
    102	107	-2	-42
Cc1nc(SCC(=O)O)[nH]c(=O)c1CCC(C)C
    101	101	2	4
Nc1nnc(CC(=O)N2CCCCC2)o1
    105	109	7	2
COC(=O)CNC(=O)N1CCn2cccc2C1Cc1ccccc1 (configuration not stated)
    99	103	6	25

Remaining list, next part:
Order of results: Polio RdRp inh	Polio RdRp inh intensity	MenB inh	Mtb MbtI inh
Cc1ccc(C)c(-n2nnnc2SCC(=O)OC(C)c2nc3sc(C)c(C)c3c(=O)[nH]2)c1 (configuration not stated)
    100	102	-16	-7
O=C(O)CCn1ccc2ccccc21
    94	102	-11	-11
O=S(=O)(c1ccccc1)N1CCC(Cc2ccccc2)CC1
    105	107	-23	.
CSc1cccc(NC2=CC(=O)CC(C)(C)C2)c1
    106	110	-13	13
CC1CCCN(c2nc3nonc3nc2Nc2cccc(Cl)c2)C1 (configuration not stated)
    104	101	-13	-8
CCOC(=O)Cc1csc(SCC(=O)c2ccc3c(c2)OCCO3)n1
    107	110	-26	-1
O=C(CSc1nnc(CN2CCCC2)n1Cc1ccccc1)Nc1ccccc1
    100	101	-18	11
Cn1c(CCNC(=O)c2cnc(N3CCOCC3)nc2)nc2ccccc21
    100	102	3	-20
COc1ccc(Cl)cc1NC(=O)CSC1=NN2CCCC(=O)N=C2S1
    102	100	-10	4
COc1ccc(C2Nc3ccccc3C(=O)N2NS(C)(=O)=O)cc1OC (configuration not stated)
    100	101	7	85
C1=CCC(CN2CCN(Cc3ccccc3)CC2)CC1 (configuration not stated)
    101	101	-14	-9
Cn1ncc(C(=O)O/N=C(\N)c2ccccc2)c1-n1cccc1
    105	103	-17	-4
COc1ccc(CC(=O)O)cc1OC
    99	97	-7	-10
CCN(CC)C(=S)Nc1cc(C(=O)OC)ccc1C(=O)OC
    104	101	-10	-2
O=C(Nc1ccc2oc(-c3ccc(Cl)cc3Cl)nc2c1)c1ccc2c(c1)OCO2
    100	104	3	19
O=C(NCCN1CCCCCC1)c1cnn(-c2ccccc2)c1-n1cccc1
    101	105	-1	-12
CCOc1ccc(N2C(=O)c3ccccc3C2=O)cc1
    106	112	-12	-11
CCOC(=O)c1c(C)[nH]c(C)c1S(=O)(=O)N(C)CC(=O)N(C)c1ccc(C)c(C)c1
    99	101	11	-1
Cc1cc(C)nc(NC(=O)C(C)N2C(=O)c3ccccc3S2(=O)=O)n1 (configuration not stated)
    106	121	0	14
Cc1ccc2nsnc2c1NC(=O)CC12CC3CC(CC(C3)C1)C2
    99	97	-4	-5

Of the compounds above, three contain a thiophene ring, fused or not:
Order of results: Polio RdRp inh	Polio RdRp inh intensity	MenB inh	Mtb MbtI inh
Cc1ccsc1C1C(C#N)=C(N)Oc2nc(-c3ccccc3)[nH]c21 (configuration not stated)
    99	98	-28	-8
CNC(=O)c1ccsc1NC(=O)c1ccc(OC)c(OC)c1
    102	107	-2	-42
Cc1ccc(C)c(-n2nnnc2SCC(=O)OC(C)c2nc3sc(C)c(C)c3c(=O)[nH]2)c1 (configuration not stated)
    100	102	-16	-7

New compounds follow:
Order of results: Polio RdRp inh	Polio RdRp inh intensity	MenB inh	Mtb MbtI inh
CSC1=NC=C(C#N)C2=NC(c3ccc(Cl)cc3)NN12 (configuration not stated)
    109	125	6	1
CC(C)/C=N/NC(=O)c1ccc2c(c1)NC(=O)C(C)(C)O2
    103	102	-2	-8
O=C(/C=C/c1ccc(Cl)cc1)C1(O)CCCCC1
    109	112	-8	.
Cc1nc(CSc2ncnc3sc4c(c23)CCC4)cs1
    100	104	-2	-13
S=C=Nc1ccc2c(c1)OCCO2
    101	101	-24	22
O=C(c1n[nH]c2c1CCCC2)n1ccnc1
    102	100	-9	-3
Cc1cc(C(=O)COC(=O)/C=C/c2ccccc2)c(C)n1-c1nccs1
    96	100	-13	10
Cc1cc2c(cc1S(=O)(=O)CCC(=O)N1CCCC1)OCC(=O)N2
    101	101	5	-10
CSc1n[nH]c(NC(=O)Nc2ccccc2)c1S(=O)(=O)c1ccc(Cl)cc1
    105	105	6	-8
COC(=O)c1ccc(NC(=O)CSc2nc(=O)cc(N)n2-c2ccccc2)cc1
    102	108	6	-8
CC(C)(C)NS(=O)(=O)c1ccc(S(=O)(=O)N2CCCC2)cc1
    104	107	-9	41
CSc1ccccc1-n1nnnc1SCCSc1ccccc1-n1nnnc1SC
    101	103	-5	-18
CC(C)Cn1c(SCC(=O)Nc2sccc2C#N)nnc1-c1ccccc1F
    106	101	-40	1
COC(=O)c1ccc(C(=S)N2CCCCC2)cc1
    98	103	-7	-13
N#Cc1ccccc1CSc1nc(N)cc(N)n1
    104	103	-49	0
O=C1CCCC2=C1C(c1ccc(O)cc1)C1=C(CCCC1=O)N2
    108	100	-93	6
O=C(NC1CC1)c1cc(Cl)nc2ccccc12
    106	109	-15	13
COc1ccc(S(N)(=O)=O)cc1OC
    101	108	-4	.
Cc1cccc(Nc2ccccc2C(=O)O)c1C
    101&99	100&102	0&5	25&13
Cc1nc(N)ccc1I
    102	110	-4	2

Continued (3 carried over from the part before).
Order of results: Polio RdRp inh	Polio RdRp inh intensity	MenB inh	Mtb MbtI inh
COc1ccc(S(N)(=O)=O)cc1OC
    101	108	-4	.
Cc1cccc(Nc2ccccc2C(=O)O)c1C
    101&99	100&102	0&5	25&13
Cc1nc(N)ccc1I
    102	110	-4	2
O=C(NCC1CCCCC1)c1ccc2ncsc2c1
    95	90	-25	-49
Cc1cccc2c3c([nH]c12)CCNC3
    105	100	-51	-2
O=C1CC(c2ccccc2)c2cc(Cl)ccc2O1 (configuration not stated)
    101	96	-21	-7
FC(F)(F)c1ccc(N2CCN(Cc3cn[nH]c3-c3ccccc3)CC2)nc1
    110	118	8	-4
CSc1n[nH]c(-c2ccncc2)n1
    100	104	-4	36
O=C(NCCc1ccc(S(=O)(=O)N2CCCC2)cc1)c1cccc2ccccc12
    103	110	-1	.
O=C(NC1=NCCS1)C12CC3CC(CC(C3)C1)C2
    103	99	.	1
COc1ccc(OCc2nnc3n2N=C(c2ccc(Br)cc2)CS3)cc1
    104	101	-40	-2
O=C(OCc1ncc(-c2ccccc2)o1)C1CC2CCCC(C1)C2=O (configuration not stated)
    94	100	-21	2
COc1ccc(N2CCN(CN3C(=O)NC(c4ccccc4)(c4ccccc4)C3=O)CC2)cc1
    105	106	-22	-4
O=C(CN1CCCC1)Nc1cccc(Cl)c1Cl
    101	101	-23	-1
Cc1nc2ccccc2nc1SCC(=O)NC1CCCC(C)C1C (configuration not stated)
    103	106	.	-17
O=C(/C=C/c1ccco1)NC(=S)n1cnc2ccccc21
    102	105	-7	20
CCCCc1nc(Cl)c(C#N)c2c1COC(C)(C)C2
    99	101	-3	1
NC[C@H]1O[C@H](O[C@H]2[C@H](O)[C@@H](O[C@H]3O[C@H](CO)[C@@H](O)[C@H](N)[C@H]3O)[C@H](N)C[C@@H]2N)[C@H](N)[C@@H](O)[C@@H]1O
    100	100	5	-12
CNC(=O)Cn1ncc2c(C)n(Cc3ccccc3)c(C)c2c1=O
    104	109	-35	3
COC(=O)c1sccc1-n1cc(C#N)c(=O)n(C)c1=O
    108	108	-3	0
O=C(O)c1ccnc(N2CCCC2)c1
    101	103	-2	89
COCCNC(=O)CN1C2CCC1CC(O)(c1cccnc1)C2 (configuration not stated)
    102	103	4	2
O=C(Cc1ccc(Cl)cc1Cl)NCc1cccnc1
    107	100	-33	-6

Next records follow.
Order of results: Polio RdRp inh	Polio RdRp inh intensity	MenB inh	Mtb MbtI inh
Cc1cc(C=Nc2ccccc2)c(C)n1-c1ccccc1
    104	98	.	5
O=C(CS(=O)(=O)Cc1ccccc1)Nc1ccc2c(c1)OCO2
    103	102	-16	7
C[N+]1(C/C=C2/COCO2)CCCCC1
    106	109	4	.
CC(C)n1c(=S)[nH]c2ccccc21
    97	93	1	41
CCCn1nc(NS(=O)(=O)c2ccccc2)c2cc3ccccc3nc21
    103	105	-15	-4
Cc1ccc2cc(NC(=O)c3cc(C)n(C)n3)ccc2n1
    101	101	-4	-3
C=CCNC(=O)c1ccc(S(=O)(=O)N2CCC(C)CC2)cc1
    101	105	-8	-13
COC(=O)CNS(=O)(=O)c1cccs1
    102	106	-13	-8
COc1ccc(S(N)(=O)=O)cc1C(=O)NCc1ccc2c(c1)OCO2
    .	.	7	27
NC(=O)c1ccccc1NC(=O)c1cccc(Br)c1
    107	101	0	.
FC(F)(F)COc1nc(N2CCCCC2)nc(N(c2ccccc2)c2ccccc2)n1
    105	103	-46	9
CN(C)S(=O)(=O)c1ccc(C(=O)Nc2nnc(SCC(=O)NCC3CCCO3)s2)cc1 (configuration not stated)
    105	106	-29	12
O=C(OCc1cccnc1)C1CCCN(C2=NS(=O)(=O)c3ccccc32)C1 (configuration not stated)
    99	102	-5	7
CC1CN(CCn2cnc3c(N)ncnc32)CC(C)O1 (configuration not stated)
    98	96	9	-4
CCCN(CC1CC1)c1cccc(C(=O)O)n1
    101	99	.	-4
NC(=O)C1(N2CCCCC2)CCN(C(=O)c2ccc(Cn3c(=S)[nH]c4cc5c(cc4c3=O)OCO5)cc2)CC1
    99	102	-1	-2
CCn1c(=O)n(CC)c2cc(N3CCCC3)c(NC(=O)Cc3ccccc3)cc21
    98	102	-9	8
O=C(O)C1=C(c2ccccc2)OCCS1
    103	100	-17	-1
CC(C)N1C(=O)CCNc2ccccc21
    105	108	1	.
S=C(Nc1ccc2[nH]ccc2c1)NC1CC2C=CC1C2 (configuration not stated)
    102	92	-3	-2

Later entries.
Order of results: Polio RdRp inh	Polio RdRp inh intensity	MenB inh	Mtb MbtI inh
O=C1NCCc2c(OC3CCCC3)cccc21
    105	105	-22	-2
COc1ccc2c(c1)c1c(c(=O)n(-c3cc(Cl)ccc3C)c(=O)n1CC(N)=O)n2C
    103	105	-6	-66
O=C(NC1CCCCC1)C1CCCN1C(=O)NCc1ccccc1 (configuration not stated)
    103	102	-15	3
Fc1ccc2[nH]c3nc(=S)[nH]nc3c2c1
    103	105	-16	20
O/N=C(/C(=N/O)c1ccccc1)c1ccccc1
    111	109	-8	-10
CCOC(=O)c1cc(C(=O)OCC)n(C)n1
    104	109	-5	.
CNC(=O)CSc1nc2cc3c(cc2cc1C)OCCO3
    103	100	-7	-61
COc1cccc(-n2cc(C(=O)NC3CCCC3)c3ccccc3c2=O)c1
    101	101	-5	-4
Cn1cnc2sc3c(c2c1=O)CCCC3
    103	102	-79	7
CCO/C=C1/C(=O)NC(=O)c2ccccc21
    211	126	3	26
COc1ccc(C2C(=O)N(C3CCCCCC3)CC(=O)N2C2CCCCC2)cc1 (configuration not stated)
    101	101	3	-8
O=C1CC(Cc2ccccc2)C(=O)N1c1ccncc1 (configuration not stated)
    101	100	6	-1
CCN(CC(=O)c1ccco1)C1CCCCC1
    99	106	-18	8
Cc1cc2ccccn2c1C(=O)c1cccs1
    102	106	.	1
O=c1ccc(-c2ccc(S(=O)(=O)N3CCCc4ccccc43)s2)n[nH]1
    103	103	-29	9
CCOC(=O)CN(C)C1=NS(=O)(=O)c2ccccc21
    101	101	-21	4
CCC(NC(=O)Nc1ccccc1C(=O)OC)(C(F)(F)F)C(F)(F)F
    108	109	-23	.
CCc1nc2ccccc2c(=O)n1NC(=O)c1c(O)c2ccccc2n(CC)c1=O
    105	106	-18	-14
C=CCNC(=S)N1CCN(C2CCCCC2)CC1
    101	100	-12	0
CC1CCN(CC(=O)Nc2ccccc2C#N)CC1
    103	103	-2	-14
Cc1cc(NC2=CC(=O)CCC2)n(-c2cc(C(F)(F)F)ccc2Cl)n1
    102	105	.	-6
CSc1ncc(C(=O)Nc2nc3ccccc3s2)cn1
    98	101	-17	-22
CCOC(=O)C1=C(SCc2ccccc2)NC(=O)C(C#N)C12CCCCC2 (configuration not stated)
    101	108	1	.
